Screening results (PubChem)
OX1R antagonist = antagonists of human orexin 1 receptor | O43613 | CHO/OX1R cells, Fluo-8 calcium fluorescence, orexin A | inhibition, % at 5 µM | actives 0.43% (n = 330,000) | AID 434989;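 active means inhibition above its plate's threshold, mean inhibition of all tested compounds on the plate plus 3 SD, cut at about 37% in these data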;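 further: 0% = orexin A challenge wells and 100% = SB-334867-A antagonist wells; not every result past the cut was called active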
Target sequence (O43613 whole entry, looked up): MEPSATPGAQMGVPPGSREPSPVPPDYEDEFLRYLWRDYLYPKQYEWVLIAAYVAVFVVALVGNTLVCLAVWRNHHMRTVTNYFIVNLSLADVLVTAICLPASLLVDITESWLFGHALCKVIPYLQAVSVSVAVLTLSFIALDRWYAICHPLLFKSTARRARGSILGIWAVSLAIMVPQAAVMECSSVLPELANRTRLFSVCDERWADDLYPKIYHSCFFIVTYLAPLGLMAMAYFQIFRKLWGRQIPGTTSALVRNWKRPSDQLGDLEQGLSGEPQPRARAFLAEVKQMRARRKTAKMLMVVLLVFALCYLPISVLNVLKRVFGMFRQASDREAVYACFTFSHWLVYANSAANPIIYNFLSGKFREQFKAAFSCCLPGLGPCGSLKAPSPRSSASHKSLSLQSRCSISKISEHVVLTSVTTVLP
* = called active by the depositor.

OX1R antagonist | compound
-18 | Cc1cccc(OCC(=O)Nc2ccc3c(C)cc(=O)oc3c2)c1
-34 | O=C(COc1cc(O)c2c(=O)cc(-c3ccccc3)oc2c1)c1ccccc1
-1 | COc1ccc(NC(=O)C2=C(C)NC(=O)NC2c2ccccc2[N+](=O)[O-])cc1 (configuration not stated)
-2 | O=C(COC(=O)c1ccc2c(c1)OCO2)NC1CCS(=O)(=O)C1 (configuration not stated)
-11 | Cc1cc(SCC(=O)Nc2cccc(S(=O)(=O)N3CCOCC3)c2)nc2ccccc12
-22 | Cc1c(CNC2CCC(C)CC2)c(C(=O)O)c(C)n1Cc1ccccc1 (configuration not stated)
-3 | O=C(NC1CCCCNC1=O)c1ccc(Cl)cc1 (configuration not stated)
-12 | COc1ccc(/C=C/C(=O)Nc2cc(S(=O)(=O)N3CCCCC3)ccc2N2CCCCC2)cc1OC
-7 | CCn1cc(/C=N\NC(=O)C2(C)CC2(Cl)Cl)c(C)n1 (configuration not stated)
-15 | CCCCN(CC)S(=O)(=O)c1ccc2c(c1)n(C)c(=O)c(=O)n2C
-4 | O=C1NC(c2ccccc2)=CC(c2ccccc2O)N1 (configuration not stated)
-21 | COc1ccc2cc(C(=O)C3CCCN(C(=O)c4snnc4C)C3)ccc2c1 (configuration not stated)
-20 | CCOC(=O)N1CCC(=C(C#N)C(=O)Nc2cc(OC)ccc2OC)CC1
-18 | Cc1ccc(CCNC(=O)C2CCCN(C(=O)N(C)C)C2)cc1 (configuration not stated)
-29 | Cc1ccc(C)c(NC(=O)CSc2nc(=O)n(CCN3CCOCC3)c3c2CCCC3)c1
4 | CC1C(=O)N2CCCc3cc(S(=O)(=O)N4CCN(c5ccccc5F)CC4)cc1c32 (configuration not stated)
-35 | CCOc1ccc(NC(=O)CSc2nnc(Cc3ccccc3)c(=O)n2N)cc1
-22 | COc1ccc2oc(=O)c(C(=O)NCc3ccc4c(c3)OCO4)cc2c1
-10 | Cc1ccc(S(=O)(=O)c2ccc(Cl)cc2)cc1S(=O)(=O)NC(C(=O)O)C(C)C (configuration not stated)
-15 | COC(=O)c1cc(NC(=O)CC2SCCNC2=O)cc(C(=O)OC)c1 (configuration not stated)

Among those listed so far, these have an aryl thioether with sulfur outside any ring.
OX1R antagonist | compound
-11 | Cc1cc(SCC(=O)Nc2cccc(S(=O)(=O)N3CCOCC3)c2)nc2ccccc12
-29 | Cc1ccc(C)c(NC(=O)CSc2nc(=O)n(CCN3CCOCC3)c3c2CCCC3)c1
-35 | CCOc1ccc(NC(=O)CSc2nnc(Cc3ccccc3)c(=O)n2N)cc1

(next part)
OX1R antagonist | compound
-15 | O=C(NCC1CC1)c1onc(CSc2ccncc2)c1C(=O)NCC1CC1
-26 | Cn1c(NC(=O)c2ccc3c(c2)OCO3)cc(=O)n(C)c1=O
-9 | Cc1nonc1CN(C)C(=O)c1ccc(OC2CCN(C(=O)c3cccnc3)CC2)cc1
-13 | CCOCCOC(=O)c1[nH]c2c(c1C)C(=O)CC(c1cc(OC)c(OC)c(OC)c1)C2 (configuration not stated)
-21 | CN(CCc1ccccn1)C(=S)Nc1ccc(Cl)cc1Cl
-9 | COC(=O)C(C(=O)OC)C(C[N+](=O)[O-])c1ccc(O)c(OC)c1 (configuration not stated)
-11 | O=C(Nc1ccnn1C1CCN(Cc2ccccc2OC(F)F)CC1)c1cccc(F)c1
-11 | O=C(c1ccco1)N1CCN(Cc2c(F)cccc2Cl)CC1
1 | Cc1csc(NC(=O)c2cccn2C)n1
-28 | C=CCN(CC=C)C(=S)NC(=O)/C=C/c1ccc(C)cc1
-25 | CC1CN(Cc2nc3c(c(=O)n(C)c(=O)n3C)n2Cc2ccccc2)CC(C)O1 (configuration not stated)
1 | CCC(C)c1ccccc1N=Cc1ccc2c(c1)OCO2 (configuration not stated)
-10 | CS(=O)(=O)Nc1nc2n(n1)C(c1ccccc1)CC(c1ccccc1)N2 (configuration not stated)
-14 | NC(=S)NNC(=O)/C(=C/c1ccc(Br)cc1)NC(=O)c1ccccc1
-14 | COc1ccc(C(=O)c2cnc3cc4c(cc3c2C)OCO4)cc1
-15 | COc1ccc(NC(=O)CSc2nnnn2C2CCCC2)cc1
-26 | O=C(CCCCCNC(=O)c1ccccc1)N/N=C/c1ccc(F)cc1
-4 | CC(=O)c1cccc(NC(=O)c2cc(=O)c3ccccc3o2)c1
-9 | CC(=O)c1cccc(NC(=O)C2CCN(S(=O)(=O)c3ccc(F)cc3)CC2)c1
0 | CCNc1ccc([N+](=O)[O-])cc1
-16 | CC1=NN(c2ccc([N+](=O)[O-])cc2)C(c2ccccc2)C1 (configuration not stated)
-32 | O=S(=O)(c1ccc(C(F)(F)F)cc1)N1CCN(CCc2ccccc2)CC1
-8 | Cn1nc(C2CC2)cc1NC(=O)CC(CC(=O)O)c1ccccc1 (configuration not stated)
-1 | COc1ccc(CNC(=O)c2ccncc2)cc1
2 | COc1ccc(S(=O)(=O)N2CCCCC2)cc1NC(=O)CCc1nc2ccccc2c(=O)[nH]1
-34 | Cn1c(C(=O)N2CCCC(C(=O)N3CCN(C(=O)c4ccco4)CC3)C2)cc2sccc21 (configuration not stated)
-10 | CCC(C)(C)c1nnc(NC(=O)C2CCN(C(=O)c3ccco3)CC2)s1
-4 | COc1cccc(/C=N/NC(=O)c2cccc([N+](=O)[O-])c2)c1OS(=O)(=O)c1ccc(C)cc1
-16 | COC(=O)c1c(NC(=O)/C=C/c2ccc3c(c2)OCO3)sc(C)c1C
29 | CCOC(=O)CSc1cccc2cccnc12
-5 | COc1ccc(CN(Cc2ccc(C(=O)O)cc2)C(=S)Nc2cc(C)cc(C)c2)cc1OC
12 | O=C(Cc1noc2ccccc12)Nc1ccc2ccccc2c1
-11 | O=C(NCc1ccc(Cl)cc1)C1CCCCN1S(=O)(=O)c1ccccc1 (configuration not stated)
-2 | CC(=O)N(c1nc(CCl)cs1)c1c(C)cc(C)cc1C
-22 | CCOC(=O)C1=C(Cn2ccc(C(F)(F)F)n2)NC(=O)NC1c1ccc2c(c1)OCO2 (configuration not stated)
-11 | NC(=O)C1(N2CCCCC2)CCN(c2ccc3nnc(-c4ccccc4)n3n2)CC1
-2 | CCC(=O)NC(NC(=S)Nc1ccccc1Br)C(Cl)(Cl)Cl (configuration not stated)
-20 | CCOC(=O)c1cnn(-c2nc(CC)nc3sc4c(c23)CCC4)c1N
-4 | Cc1c(C(=O)N2CC(C)OC(C)C2)sc2nc(-c3ccccc3)cn12 (configuration not stated)
-46 | O=C(c1ccc2c(Cl)c3c(nc2c1)CCCC3)N1CCC(N2CCCCC2)CC1
-14 | O=C(NCCCCCCNC(=O)N1CCCCCC1)N1CCCCCC1
-37 | O=c1c2ccccc2nc(SCc2ccccc2)n1CC1CCCO1 (configuration not stated)
-23 | Cc1ccccc1OCCOCCN1CCCCCC1
-14 | Nc1ccc(S(=O)(=O)Nc2nc3ccccc3o2)cc1
10 | Cc1ccc(NC(=O)CSc2n[nH]c(-c3ccncc3)n2)cc1C
-12 | COC(=O)c1cc(Br)c(=O)n(Cc2ccc(C(=O)O)cc2)c1
-18 | CCCCN(C(=O)c1cccs1)C1CCS(=O)(=O)C1 (configuration not stated)
-5 | CC1=C(C(=O)N(C)C)C(c2ccc(Cl)c(Cl)c2)NC(=O)N1 (configuration not stated)
-8 | CNc1c([N+](=O)[O-])cnn1-c1cccc(Cl)n1
-33 | COc1ccccc1C(CCNCc1ccccc1)c1ccc(OC(C)C)cc1 (configuration not stated)
-1 | Cc1ccc(-c2onc(C)c2C)cc1S(=O)(=O)N1CCOc2ccccc21
5 | O=C(C[n+]1ccc(Cc2ccccc2)cc1)Nc1ccc([N+](=O)[O-])cc1Cl
-18 | CC(C)c1ccccc1OCC(=O)N1CCCCCCC1
-21 | OC(COc1ccc(Br)cc1)CN1CCN(c2ccccc2)CC1 (configuration not stated)
-14 | COc1ccc(-c2noc(CSc3nc4sc(C)c(C)c4c(=O)n3-c3ccccc3)n2)cc1
5 | O=C1[C@@H]2Cc3c([nH]c4ccccc34)C(c3ccccc3)N2C(=O)CN1C1CCN(Cc2ccccc2)CC1 (some centres not stated)
-1 | NC(=O)c1ccc(-n2nnnc2Oc2ccccc2)cc1
-18 | O=C(NCC(c1cccnc1)N1CCN(c2ccccc2)CC1)c1ccc2c(c1)OCO2 (configuration not stated)
-15 | O=S(=O)(c1ccc(N2CCN(S(=O)(=O)c3ccc4c(c3)OCCO4)CC2)nc1)N1CCCC1
-21 | Cc1ccccc1Nc1nc(CSc2nnc(-c3ccoc3C)n2C)cs1

Structural class, the entries above with bromine.
OX1R antagonist | compound
-14 | NC(=S)NNC(=O)/C(=C/c1ccc(Br)cc1)NC(=O)c1ccccc1
-2 | CCC(=O)NC(NC(=S)Nc1ccccc1Br)C(Cl)(Cl)Cl (configuration not stated)
-12 | COC(=O)c1cc(Br)c(=O)n(Cc2ccc(C(=O)O)cc2)c1
-21 | OC(COc1ccc(Br)cc1)CN1CCN(c2ccccc2)CC1 (configuration not stated)

(continued)
OX1R antagonist | compound
-20 | CCC1CCC2(CC1)NC(=O)N(CC(=O)Nc1cc(C)on1)C2=O (configuration not stated)
-20 | CCCCC(=O)N1C/C=C\C(c2ccc(OC)cc2)N(Cc2ccc(F)cc2)C(=O)C1 (configuration not stated)
3 | O=C(NCCN1CCOCC1)c1cc(-c2ccc(Br)cc2)on1
-19 | Cc1cc(C)c(N(CC(=O)NCc2ccccc2)C(=O)c2csnn2)c(C)c1
-28 | O=C(COc1ccccc1)Nc1ccc(S(=O)(=O)Nc2ncccn2)cc1
-14 | COc1ccc(C(=O)COC(=O)CN2C(=O)NC(C)(C)C2=O)cc1OC
-4 | O=c1oc2ccccc2cc1NCc1ccccc1O
-8 | Cc1cnc(NC(=O)CN(C)S(=O)(=O)c2ccc(Cl)cc2)s1
-21 | CNS(=O)(=O)c1cccc(C(=O)OCc2cc(Cl)cc3c2OCOC3)c1
-7 | COc1c(Br)cc(Br)cc1C(=O)O
-16 | O=S(=O)(Nc1cccc2ccccc12)c1ccccc1
-29 | CC(C)OCCCN1CC(=O)N2[C@@H](Cc3c([nH]c4ccccc34)C2(C)C)C1=O
14 | O=C(N[C@@H](Cc1ccccc1)C(=O)N1CCC2(CC1)NCCc1[nH]cnc12)c1cccc(Br)c1
-32 | O=C(CNc1cc(S(=O)(=O)N2CCOCC2)ccc1N1CCCC1)NCc1ccco1
-11 | Cc1nc(NC(=O)c2ccccc2)nc2cc3c(cc12)OCO3
-9 | COc1cccc(C2CC(c3ccc(C)cc3)Nc3nc(N)nn32)c1 (configuration not stated)
-1 | CCCCNC(=O)N(C)c1nncnc1C(=O)NC
-25 | Cc1ccc(N(Cc2ccccc2)C(=O)c2cc(S(=O)(=O)N3CCOCC3)ccc2Cl)cc1
-21 | CC1CCN(S(=O)(=O)c2ccc3ncn(CC(=O)N4CCN(C)CC4)c(=O)c3c2)CC1
2 | O=C(c1ccc2c(c1)OCCO2)C1CCN(C(=O)c2ccc(F)cc2)CC1
-11 | O=C(NC(=S)NNC(=O)c1ccccc1O)c1ccco1
3 | COc1cc(/C=N/NC(=O)c2ccc(Cl)c(S(N)(=O)=O)c2)ccc1OCC(N)=O
-34 | CC1CCc2c(sc(NC(=O)c3ccc(Cn4cc([N+](=O)[O-])cn4)o3)c2C#N)C1 (configuration not stated)
-6 | COC(=O)[C@H](C)NC(=O)Nc1ccccc1F
-98 | O=C1CSC(=O)N1CC(O)COc1ccc(Cl)cc1 (configuration not stated)
-3 | CCOc1ccc(N(CC(=O)Nc2ccc(CC)cc2)S(=O)(=O)c2c(C)[nH]c(=O)[nH]c2=O)cc1
-21 | O=C(c1ccc(Br)o1)N1CCN(Cc2ccc3c(c2)OCO3)CC1
-28 | CCOC(=O)c1cnn(-c2ncnc3sc(C)c(C)c23)c1N
-47 | COc1ccc(/C=C/C(=O)Nc2ccc3nc4n(c(=O)c3c2)CCCC4)cc1OC
-10 | O=C(c1cc([N+](=O)[O-])ccc1N1CCOCC1)N1CCN(S(=O)(=O)c2cc(Cl)ccc2Cl)CC1
-2 | CCOC(=O)CN1C(=O)S/C(=C\c2ccc(-c3cccc(C(=O)O)c3C)o2)C1=O
-30 | C/C(=N\Nc1cc(C)nc(-c2ccccc2)n1)c1cccc([N+](=O)[O-])c1
-11 | CC(C)(C)C1CCC(OC(=O)C[N+]2(C)CCCC2)CC1 (configuration not stated)
-18 | Cn1cc(Br)c(C(=O)N2CCN(c3cccc(Cl)c3)CC2)n1
-14 | Cc1nc2sc(-c3ccccc3)cc2c(=O)n1N
-5 | COc1ccc2[nH]cc(C(=O)CCl)c2c1
-22 | O=C(O)c1cccc2cc(-c3ccccc3)oc(=O)c12
-12 | O=C(N/N=C/c1ccc(N2CCOCC2)cc1)C1CC1
-18 | COc1ccc(CCNCC(=O)Nc2ccc(C(=O)N3CCCCC3)cc2)cc1
-33 | COc1ccc(NC(=O)CN2C(=O)COc3ccc(C)cc32)c(OC)c1

2 entries from above, as tab-separated lines:
compound	OX1R antagonist
Cc1ccc(CCNC(=O)C2CCCN(C(=O)N(C)C)C2)cc1 (configuration not stated)	-18
Cc1ccc(C)c(NC(=O)CSc2nc(=O)n(CCN3CCOCC3)c3c2CCCC3)c1	-29

More results.
OX1R antagonist | compound
-5 | O=C(CC1C(=O)NCCN1Cc1ccc(F)cc1)NCCOc1cccnc1 (configuration not stated)
2 | CCN(CC)S(=O)(=O)c1ccc(NC(=O)COC(=O)CNS(=O)(=O)/C=C/c2ccccc2)cc1
-12 | COc1ccc(Cn2nnnc2CN2CCC(O)(c3ccccc3F)CC2)cc1
-7 | CN(Cc1ccccc1)C(=O)CCc1ccccc1
-1 | Cc1ccc(C)c(NC(=O)CN2C(=O)c3ccccc3C2=O)c1
-24 | CCn1ncc(CN2CCN(C(=O)Nc3ccccc3C(=O)OC)CC2)c1C
-25 | Cc1ccc(N=C/C(C(=O)C(F)(F)F)=C(\O)c2ccco2)cc1Cl

Pulled one by one from above:
OX1R antagonist | compound
-24 | CCn1ncc(CN2CCN(C(=O)Nc3ccccc3C(=O)OC)CC2)c1C
-1 | Cc1ccc(C)c(NC(=O)CN2C(=O)c3ccccc3C2=O)c1
-5 | O=C(CC1C(=O)NCCN1Cc1ccc(F)cc1)NCCOc1cccnc1 (configuration not stated)
2 | CCN(CC)S(=O)(=O)c1ccc(NC(=O)COC(=O)CNS(=O)(=O)/C=C/c2ccccc2)cc1

Some of the compounds tested; most or all hits stand in other tables.
